Screens (PubChem)
KCNQ2 inh = KCNQ2 potassium channel inhibitors, primary screen, cell-based, CHO-K1, FluxOR thallium flux, B-score (AID 2156). O88943. 20 min; hits give low values; only compounds with negative scores are shown here; some inactives read as strong as hits. B-score at 10 µM. 1.1% of 310,000 active;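 active = fluorescence ratio B-score at most minus 3 library SDs, with starting brightness B-score within 2 library SDs, cut at about -5.5 in these data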
Target sequence (O88943 whole entry, looked up): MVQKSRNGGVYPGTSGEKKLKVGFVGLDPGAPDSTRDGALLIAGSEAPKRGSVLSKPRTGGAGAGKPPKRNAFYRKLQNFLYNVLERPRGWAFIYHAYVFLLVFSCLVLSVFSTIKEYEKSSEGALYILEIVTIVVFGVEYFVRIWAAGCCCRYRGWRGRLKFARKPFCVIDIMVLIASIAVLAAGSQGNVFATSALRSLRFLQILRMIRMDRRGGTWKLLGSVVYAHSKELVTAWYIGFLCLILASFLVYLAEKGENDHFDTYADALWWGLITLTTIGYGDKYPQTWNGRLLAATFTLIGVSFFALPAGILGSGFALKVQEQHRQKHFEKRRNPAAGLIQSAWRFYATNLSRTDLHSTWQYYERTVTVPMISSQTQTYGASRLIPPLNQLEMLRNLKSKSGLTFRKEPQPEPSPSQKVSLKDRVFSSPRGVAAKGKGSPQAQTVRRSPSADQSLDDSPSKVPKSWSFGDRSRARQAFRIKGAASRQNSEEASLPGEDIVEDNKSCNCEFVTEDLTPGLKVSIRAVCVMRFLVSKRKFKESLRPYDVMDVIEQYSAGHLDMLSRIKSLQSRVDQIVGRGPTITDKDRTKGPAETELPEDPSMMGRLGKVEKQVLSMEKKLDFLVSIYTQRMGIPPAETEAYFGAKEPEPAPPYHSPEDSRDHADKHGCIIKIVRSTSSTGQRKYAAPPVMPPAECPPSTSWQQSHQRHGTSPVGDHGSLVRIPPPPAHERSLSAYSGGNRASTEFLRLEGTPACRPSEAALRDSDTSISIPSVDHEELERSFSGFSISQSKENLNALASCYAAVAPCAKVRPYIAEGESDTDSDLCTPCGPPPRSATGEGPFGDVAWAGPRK
KCNQ2 inh baseline = second read-out of KCNQ2 inh, no call of its own (marks repeat the call); B-score; measured here: initial fluorescence intensity artifact check;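 brightness before thallium and not channel activity; 0 = typical well and far values either way flag optical interference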
The depositor's hits bear a star; i = inactive. Only part of the results is shown; the hit share may differ from the screen's.

KCNQ2 inh	KCNQ2 inh baseline	molecule
i	0.09	COc1ccnc(Oc2ccc(F)cc2)c1C(=O)N/C=N/OCc1c(Cl)cccc1Cl
i	2.2	O=C(NNc1ccc(Cl)cc1)c1c(F)cccc1Cl
i	0.43	COc1ccc([C@@H]2C[C@H](c3ccccc3)Oc3cc(C)cc(C)c32)cc1
i	-0.71	COCC(=O)Nc1cc(C)cn(Cc2ccc(F)cc2)c1=O
i	0.3	COc1ccccc1CC(NC(C)=O)C(=O)NC1CCN(C(=O)c2ccc(C)cc2)CC1 (stereo not given)
i	1.7	COc1ccc(N(C(=O)CCC(=O)Nc2cc(C)on2)C(C(=O)NC2CCCC2)c2ccco2)cc1 (stereo not given)
i	-2.1	COc1ccc(C(C)=O)cc1CN1C(=O)NC(CC(C)C)C1=O (stereo not given)
i	3.3	CCOc1cccc(SCc2noc(C(=O)NCCOC)c2C(=O)O)c1
i	0.1	O=C(COc1ccc(S(=O)(=O)N2CCCCC2)cc1)Nc1ccccc1F
i	-0.45	CCc1ccc(NC(=O)Cn2c(=O)c3cccn3c3ccccc32)cc1

7 compounds from above, arranged by their value in KCNQ2 inh baseline, falling:
canonical_smiles | KCNQ2 inh | KCNQ2 inh baseline
COc1ccc([C@@H]2C[C@H](c3ccccc3)Oc3cc(C)cc(C)c32)cc1 | i | 0.43
COc1ccccc1CC(NC(C)=O)C(=O)NC1CCN(C(=O)c2ccc(C)cc2)CC1 (stereo not given) | i | 0.3
O=C(COc1ccc(S(=O)(=O)N2CCCCC2)cc1)Nc1ccccc1F | i | 0.1
COc1ccnc(Oc2ccc(F)cc2)c1C(=O)N/C=N/OCc1c(Cl)cccc1Cl | i | 0.09
CCc1ccc(NC(=O)Cn2c(=O)c3cccn3c3ccccc32)cc1 | i | -0.45
COCC(=O)Nc1cc(C)cn(Cc2ccc(F)cc2)c1=O | i | -0.71
COc1ccc(C(C)=O)cc1CN1C(=O)NC(CC(C)C)C1=O (stereo not given) | i | -2.1

Next compounds
KCNQ2 inh	KCNQ2 inh baseline	molecule
i	0.12	CN(CCCCCCN(C)Cc1ccccc1O)Cc1ccccc1O
i	2.3	CC[C@H](C)[C@H](NC(=O)[C@H](Cc1ccc(O)cc1)NC(=O)[C@@H](N)C(C)C)C(=O)N[C@@H](Cc1cnc[nH]1)C(=O)N1CCC[C@H]1C(=O)N[C@@H](Cc1ccccc1)C(=O)O
i	2.4	Nn1cc(-c2ccccc2)nc1SCC(=O)NCC1CCCO1 (stereo not given)
i	1.3	COc1cccc(CNC(=O)c2ccccc2SCC(=O)N2CCCC2)c1
i	-0.49	C1=CC2c3ccccc3NC(c3ccncc3)C2C1 (stereo not given)
i	-0.36	Cc1ccc(Sc2cc(N3CCOCC3)nc(-c3ccccc3)n2)cc1
i	0.68	CSc1ccc(S(=O)(=O)NCCCOC(C)C)cc1
i	0.79	Cc1cc(C)c(CN2CCN(Cc3ccc(C)o3)C(CCO)C2)c(-n2cccn2)c1 (stereo not given)
i	2.2	C=CCC1NS(=O)(=O)OC(CCc2ccccc2)C1O (stereo not given)
i	0.41	C=CCn1c(Cc2cccs2)nnc1SC/C=C/c1ccccc1

Further compounds follow:
KCNQ2 inh	KCNQ2 inh baseline	molecule
i	0.99	Cc1c(N=Cc2ccc(Br)s2)cccc1[N+](=O)[O-]
i	0.39	COc1ccc(-c2noc3c2-c2nc(-c4cccc(C)c4)sc2CC3)cc1
i	-0.57	N#CC(c1ccccc1)N(CCCCl)C(=O)c1ccc(Br)cc1 (stereo not given)
i	-2	Cc1ccc(Cn2nc(C)cc2C(=O)Nc2ccccc2Cl)cc1
i	-0.09	CCOc1ccc(C2NC(=S)NC3=C2CCc2ccccc23)cc1 (stereo not given)
i	-0.16	CC1CCCN(S(=O)(=O)c2ccc3c(c2)CCN3C(=O)C2CCC2)C1 (stereo not given)
i	-0.83	Cc1ccc(NS(=O)(=O)c2cc(C(=O)N3CCOCC3)ccc2C)cc1
i	0.88	COC(=O)NCC(c1cccnc1)N1CCN(c2ccccc2)CC1 (stereo not given)
i	-0.18	CCn1nc(C)cc1C(=O)N1CCCC(CCC(=O)NCc2ccccc2F)C1 (stereo not given)
i	1.9	CCCCc1ccc(S(=O)(=O)N2CCN(C(=O)c3ccco3)CC2)cc1

Additional records follow:
KCNQ2 inh	KCNQ2 inh baseline	molecule
i	1.1	O=C(CCC(=O)N1CCN(c2ccccc2)CC1)Nc1nnc(C2CCCCC2)s1
-5.6*	0.77*	Cc1ccccc1OCC(=O)Nc1ccccc1-c1ccccc1NC(=O)COc1ccccc1C
i	-0.01	O=C(Nc1ccccc1)c1cccc(N2C(=O)C3C4CC(C(Br)C4Br)C3C2=O)c1 (stereo not given)
i	-2	CN(Cc1ccc(F)cc1)C(=O)c1cccc(S(=O)(=O)NCc2ccccc2)c1
i	-1.6	O=c1oc(-c2ccccc2)cc(Cl)c1Cl
i	-2.1	CCOc1ccc(CN2CCNC(=O)C2CC(=O)NCCC2=CCCCC2)cc1 (stereo not given)
i	0.14	CC(C)CN(C(=O)CSc1nn(-c2ccc(Cl)cc2)c(=S)s1)C1CCS(=O)(=O)C1 (stereo not given)
i	13	Nc1ccc2nc(-c3ccccc3)c(-c3ccccc3)nc2c1
i	0.16	Cc1cc(N(C)NC(=S)Nc2ccccc2)nc(C)n1
i	-0.04	N#CCCn1nc(-c2ccccc2)cc1-n1c(C(F)(F)F)nc2ccccc21

2 of the compounds above, field by field:
Cc1cc(N(C)NC(=S)Nc2ccccc2)nc(C)n1
- KCNQ2 inh = i
- KCNQ2 inh baseline = 0.16

N#CCCn1nc(-c2ccccc2)cc1-n1c(C(F)(F)F)nc2ccccc21
- KCNQ2 inh = i
- KCNQ2 inh baseline = -0.04

(more compounds)
KCNQ2 inh	KCNQ2 inh baseline	molecule
i	-0.11	O=C(CSc1nnc(-c2ccccc2)o1)NC1CC1
i	1.2	O=C(CNS(=O)(=O)c1ccc(Br)s1)NCC1COc2ccccc2O1 (stereo not given)
i	0.2	COCCNS(=O)(=O)c1ccc(Cl)c(C(=O)NC2CCN(Cc3ccccc3)CC2)c1
i	-0.95	OC1(c2ccccc2Cl)NN=C2CCCCCN21 (stereo not given)
i	-0.88	C[C@@]12C(=O)N(c3cccc(F)c3)C(=O)N1[C@H](c1ccc(Cl)cc1)[C@@H]1C(=O)N(C3CCCCC3)C(=O)[C@@H]12
i	-0.49	CCCCc1nc2ccccc2c(NC(=O)CN2CCN(C)CC2)c1CCC
i	-0.6	Cc1cc(C)cc(NC(=O)Nc2cc(S(=O)(=O)N(C)C)ccc2C)c1
i	2.8	N#C[C@]1(S(=O)(=O)c2ccccc2)C[C@@H]2ON=C(c3cccc(Br)c3)[C@@H]2C1
i	0.86	Cc1nn(-c2ccccc2)c(C)c1-c1cc(C(=O)N/N=C/c2ccc(O)cc2)[nH]n1
i	0.59	CC1c2cc3c(cc2CCN1S(=O)(=O)c1ccccc1)OCCCO3 (stereo not given)

(list continues)
KCNQ2 inh	KCNQ2 inh baseline	molecule
i	-0.41	COc1cc(NC(=O)CCCNC(=O)c2ccc(Cl)cc2)cc(OC)c1
i	-1.1	Cc1cc(C)c2cccc(N)c2n1
i	2.1	O=C(NCCCN1CCCC1=O)c1ccc(S(=O)(=O)Nc2cccc(C(F)(F)F)c2)cc1
i	-3.4	O=C(CCCCCN1C(=O)[C@@H]2Cc3ccccc3CN2C1=O)N[C@@H](Cc1ccc(O)cc1)C(=O)O
i	0.02	CCOc1ccc(CCNC(=O)COC(=O)c2cccc(N(C)C)c2)cc1OCC
i	-0.06	COc1ccc(/C=C2\Oc3cc(OCC(N)=O)ccc3C2=O)cc1OC
i	-0.11	CCCCN(CC)CCNC(=O)c1cc2c(=O)n(C)c3ccccc3c2s1
i	0.94	Oc1ccccc1C=NCC(O)c1ccccc1 (stereo not given)
i	0.64	CN(C)Cc1c(O)ccc2occ(C(=O)c3ccccc3)c12
i	2.2	COc1ccc(N2CCN(C(=O)CCCSc3nc4ccccc4[nH]3)CC2)cc1

Further results
KCNQ2 inh	KCNQ2 inh baseline	molecule
i	-1.9	CC(C)(C)C(=O)Nc1nc2c(s1)COc1ccccc1-2
i	-1.7	Cc1ccc(NC(=O)O/N=C/c2ccc(Br)cc2)cc1
i	1.6	CNc1ccc(/C=C(\C#N)C(=O)Nc2ccccn2)cc1[N+](=O)[O-]
i	0.59	CC(C)C[C@@H]1NC(=O)N(CCCn2ccnc2)C1=O
i	-0.13	C/C(=N/NC(=O)Cc1cccc2ccccc12)c1cccs1
i	1.9	OC(COc1ccc(Br)cc1)Cn1ccnc1 (stereo not given)
i	0.08	O=C(Nc1nnc(-c2ccncc2)o1)c1ccc2ccccc2c1
i	1.9	CCN1C(=O)[C@H]2[C@@H](c3ccc(-c4ccc(C(C)=O)cc4)cc3)N3CCC[C@@]3(C(=O)OC)[C@H]2C1=O
i	7.3	CCOC(=O)c1ccc(N2C(=O)C3C(C2=O)C(C(=O)c2ccc(Cl)cc2)N2CCCC32)cc1 (stereo not given)
i	-0.62	Cc1c(C(=O)NCCSCc2c(F)cccc2Cl)cnn1-c1ccc(Cl)cc1

(next part)
KCNQ2 inh	KCNQ2 inh baseline	molecule
i	1.4	CC(=O)Oc1ccc(NC(=O)Cc2ccccc2)c(C(=O)O)c1
i	-0.1	CCOC(=O)c1cc(C)n(Cc2ccc(OCC)c(OC)c2)c1C
i	-0.89	CC(C)OC(=O)NCCOC(=O)Nc1ccc(Cl)c(Cl)c1
i	1.5	CCN(CC)C(=O)C(C)OC(=O)COc1ccc(Cl)cc1C (stereo not given)
i	-3.3	CN(C)CCCN(C(=O)CCS(=O)(=O)c1ccccc1)c1nc2cc3c(cc2s1)OCO3
i	-0.1	CC(=Nc1cccc(O)c1)c1sc2ccccc2c1O
i	1.4	Cc1cc(C)cc(Nc2ncc3c(n2)CCCC3=O)c1
i	-0.71	O=C(O)CC1(CC(=O)Nc2cccc(C(F)(F)F)c2)CCCC1
i	-0.97	Cn1cnc(S(=O)(=O)N2CCc3ccccc32)c1
i	-0.91	CCOC(=O)CSc1ccc2ccccc2n1

(listing goes on)
KCNQ2 inh	KCNQ2 inh baseline	molecule
i	-1.6	CCOC(=O)c1ccc(-c2cccc(C(F)(F)F)c2)nc1C
i	-0.96	COc1ccc(C(=O)NC2=C(C#N)CCC2)cc1OC
i	0.36	O=C(c1ccco1)N(CC1CCCO1)c1nc(-c2ccccc2)cs1 (stereo not given)
i	-1.3	CN(Cc1ccco1)C(=O)c1cc2c(s1)-c1ccc(Cl)cc1S(=O)(=O)C2
i	-0.01	CN1CCCN(C(=O)c2ccccc2Cl)CC1
i	-2.2	O=C1C2CCCN2C(c2cccc(F)c2)N1c1cccc(Cl)c1 (stereo not given)
i	0.03	Cc1ccc(SCCNS(C)(=O)=O)cc1
i	-0.22	O=C(COC(=O)c1ccc2c(=O)n3c(nc2c1)CCC3)Nc1ccccc1F
i	1.4	CCOC(=O)c1c(C)c(-c2ccccc2)n(CC(=O)NCCCN(CC)CC)c1C
i	1.3	CCOC(=O)C(Cc1ccc(NC(=O)/C(=C/c2ccc(OC(C)=O)cc2)NC(C)=O)cc1)N1C(=O)c2ccccc2C1=O (stereo not given)

(further entries)
KCNQ2 inh	KCNQ2 inh baseline	molecule
i	-0.62	O=C(NCCc1ccccc1)c1ccccc1F
i	-2.5	O=C1CS/C(=N\N=C\c2ccco2)N1c1ccccc1
i	0.72	CCCn1cc(SCC(=O)NC2CCCC2)c2ccccc21
i	-0.19	CC(C)c1ccc(N(CC(=O)NCCc2ccccc2)C(=O)c2csnn2)cc1
i	-2.7	COc1cccc2[nH]c(C(=O)NCc3ccccc3)cc12
i	1.1	CCN(CC)c1nc2ccccc2c(N)c1-c1ccccc1
i	-3.1	CCOC(=O)Cc1csc(NC(=O)CN2CCN(CC)CC2)n1
i	0.54	Nc1nc(/C=C/c2ccc(F)cc2)nc(-c2ccccc2O)n1
i	0.12	CCCN1C2=C(C(=O)CC(C)(C)C2)C(c2ccc(F)cc2)C2=C1c1ccccc1C2=O (stereo not given)
i	0.19	CCCCOc1ccc(/C(O)=C(\C#N)c2nc3ccccc3[nH]2)cc1

Complete entries, looked up by structure. Values in the order: KCNQ2 inh | KCNQ2 inh baseline
Listed for O=C(NNc1ccc(Cl)cc1)c1c(F)cccc1Cl : i | 2.2
Listed for CC1CCCN(S(=O)(=O)c2ccc3c(c2)CCN3C(=O)C2CCC2)C1 (stereo not given) : i | -0.16
Listed for CN(Cc1ccc(F)cc1)C(=O)c1cccc(S(=O)(=O)NCc2ccccc2)c1 : i | -2

The results go on:
KCNQ2 inh	KCNQ2 inh baseline	molecule
i	1.6	CCOC(=O)CSC1=C(C#N)C(c2ccc(Cl)cc2)C(C(=O)OC)C(=O)N1 (stereo not given)
i	0.48	Cc1ccnc(NC(=O)CCCOc2ccc(Cl)cc2C)c1
i	-2.1	Cc1ccc(S(=O)(=O)Cc2ccc(C(=O)NCCCN3CCCC3=O)o2)cc1
i	-0.21	COc1ccc(Cl)cc1NC(=O)CCn1c(=O)oc2ccccc21
i	0.01	Cc1ccc(SCC(=O)c2sc(-c3ccccc3)nc2C)cc1
i	0.06	CC(C)CNC(C(=O)Nc1ccc([N+](=O)[O-])cc1Br)c1ccccc1 (stereo not given)
i	0.82	CC(CN1CCN(C)CC1)OC(=O)c1ccc(Cl)cc1Cl (stereo not given)
i	0.41	NS(=O)(=O)c1ccc(NC(=S)NNC(=O)c2ccc(Br)o2)cc1
i	0.7	Cc1nc([N+](=O)[O-])cn1C(C)C
i	-0.97	CSc1ccccc1NC(=O)CSCc1ccccc1Br

(next part)
KCNQ2 inh	KCNQ2 inh baseline	molecule
i	-0.83	CCOC(=O)C1CCCN(c2c(C(=O)c3ccccc3)cnc3ccccc23)C1 (stereo not given)
i	1.1	CNc1sc(C(=O)c2cccs2)c(N)c1-c1nc2ccccc2s1
i	1.7	CS(=O)(=O)c1nc(S(=O)(=O)c2ccc(Cl)cc2)c(N2CCCCC2)s1
i	0.67	CCOc1ccccc1NC(=O)c1ccc(CN2CCc3ccccc3C2)cc1
i	-1.3	O=C(CN1c2cccc3cccc(c23)S1(=O)=O)N1CCOCC1
i	0.19	CCOC(=O)N1CCN(C(=O)c2ccc3nc(C)sc3c2)CC1
